Screening data (PubChem)
DT40 TDP1 CPT = DT40-hTDP1 cell growth loss with CPT; chicken DT40 Tdp1-/-;hTDP1 cells + 20 nM CPT, ATP luminescence, 48 h; Potency, µM (titrated, usually from 46.2 µM), inactives show at the top dose activity change, negative = growth inhibition, usual class: inhibitors; 12% of 420,000 active; AID 686979; further: nearly all actives have a fitted effect of over 55% in size
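Cell growth measured by CellTiter-Glo luminescence after a minimum 48 h, 37 C compound exposure with 20 nM CPT in Tdp1-knockout DT40 cells stably expressing hTDP1, seeded 400/well; qHTS titration format.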
KAT2A inh = blocks human GCN5L2 histone acetyltransferase. GCN5L2 HAT assay, ThioGlo1 CoA-SH fluorescence. Potency, µM (top dose mostly 58.9 µM), for inactives: top-dose activity change, negative = inhibition, most hits filed as inhibitors. Q92830. 0.21% of 390,000 active
Target sequence (Q92830 whole entry, looked up): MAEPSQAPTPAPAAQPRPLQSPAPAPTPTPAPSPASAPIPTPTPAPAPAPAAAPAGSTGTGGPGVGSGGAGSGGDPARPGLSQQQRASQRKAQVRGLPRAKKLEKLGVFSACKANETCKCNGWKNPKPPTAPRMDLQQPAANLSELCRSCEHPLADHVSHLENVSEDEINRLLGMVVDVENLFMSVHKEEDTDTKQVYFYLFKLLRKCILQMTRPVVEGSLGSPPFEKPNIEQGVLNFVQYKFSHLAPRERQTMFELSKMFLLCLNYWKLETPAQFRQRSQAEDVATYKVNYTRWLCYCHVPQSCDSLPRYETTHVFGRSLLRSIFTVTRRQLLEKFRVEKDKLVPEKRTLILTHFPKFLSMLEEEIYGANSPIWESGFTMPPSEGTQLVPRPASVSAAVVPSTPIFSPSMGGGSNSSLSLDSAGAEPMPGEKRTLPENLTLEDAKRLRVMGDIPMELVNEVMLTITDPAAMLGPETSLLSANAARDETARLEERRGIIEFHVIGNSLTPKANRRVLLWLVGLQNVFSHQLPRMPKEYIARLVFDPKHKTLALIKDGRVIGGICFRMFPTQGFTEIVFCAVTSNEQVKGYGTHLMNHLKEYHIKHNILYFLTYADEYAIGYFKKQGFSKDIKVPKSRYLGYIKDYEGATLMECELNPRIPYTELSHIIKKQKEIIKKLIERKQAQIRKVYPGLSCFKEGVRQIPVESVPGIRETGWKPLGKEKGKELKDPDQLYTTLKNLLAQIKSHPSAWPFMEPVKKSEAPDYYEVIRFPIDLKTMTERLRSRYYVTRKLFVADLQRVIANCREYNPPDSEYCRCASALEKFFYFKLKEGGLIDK
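Compounds, pin-transferred from DMSO stocks, meet 20nM GCN5L2 for 15 min before the reaction begins with H3(1-25) peptide (75uM) and acetyl-CoA (70uM). Thiol-reactive ThioGlo1 reports CoA release over 20 min at room temperature.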
* = called active by the depositor; ? = inconclusive; . = not tested or not shown; & = joins results of further samples; [ ] = remark or other dose. The call rests on the fitted dose curve; in most records, active means well fitted curve in the direction sought with a large enough effect; inconclusive means small, poorly fitted or top-dose-only effect, or another doubt; inactive means no such curve, though single readings can be large; an effect the other way counts as inactive or inconclusive. On the % scale 0 is the no-effect control and ±100 the full control effect; potency means the concentration at half of the fitted maximal effect. These rows are one share of the data; most or all hits stand in other tables.

SMILES	DT40 TDP1 CPT	KAT2A inh
CSc1ccc(Cl)c(C(=O)OCC(=O)N2CCOCC2)c1	-15%	-2%
CC(=O)Oc1ccc(C(=O)c2ccccc2)c(OC(C)=O)c1	-7%	1%
Cc1nc2cc(C(=O)OCC(=O)Nc3ccc(C#N)cc3)ccc2n1-c1ccccc1	-15%	-12%
O=C(Nc1c(C(=O)N2CCN(c3ccc(F)cc3)CC2)oc2ccccc12)c1c(F)cccc1F	?	-15%
CCOC(=O)C1=C(C)NC(C)=C(C(=O)OCC)C1	-5%&-16%	-21%
CN1CCN(c2nc(-c3ccc(Br)cc3)nnc2-c2ccccc2)CC1	16µM*	-5%
COc1ccccc1N1CCN(C(=O)c2ccc(S(=O)(=O)N3CCCCCC3)cc2)CC1	?	-5%
CC(C)CNC(=S)N(CCN(C)C)Cc1cc2cc3c(cc2[nH]c1=O)OCO3	?	-1%
O=C(O)C1(P(=O)(c2ccccc2)c2ccccc2)CCC1	-10%	-8%
Cc1cc(NCc2ccc(Cl)cc2)n2cnnc2n1	21µM*	0%

3 records picked at random from the list so far:
SMILES	DT40 TDP1 CPT	KAT2A inh
CSc1ccc(Cl)c(C(=O)OCC(=O)N2CCOCC2)c1	-15%	-2%
CN1CCN(c2nc(-c3ccc(Br)cc3)nnc2-c2ccccc2)CC1	16µM*	-5%
Cc1nc2cc(C(=O)OCC(=O)Nc3ccc(C#N)cc3)ccc2n1-c1ccccc1	-15%	-12%

The listing continues:
SMILES	DT40 TDP1 CPT	KAT2A inh
COc1ccc(NC(=O)c2ccc(-c3nn(C)c(=O)c4ccccc34)cc2)cc1C(N)=O	4%	-10%
Cc1noc(C)c1COc1ccccc1C(=O)N(C)CC(=O)Nc1cccc(F)c1	-23%	0%
CC(=O)N/N=C(\C)c1cccc(NC(=O)c2cccs2)c1	-1%	0%
CC1CCC2(CC1)NC(=O)N(CC(=O)c1ccc(Cl)s1)C2=O (stereo unspecified)	14%	-10%
O=C(CN(CCc1ccccc1)S(=O)(=O)c1ccc(Cl)cc1)N/N=C/c1ccccc1C(=O)O	-2%	-4%
Cc1nn(C)c(C)c1S(=O)(=O)N1CCc2ccccc21	-8%	-2%
Cc1noc(NS(=O)(=O)c2ccc(N/C=C\C(=O)c3ccc4c(c3)OCO4)cc2)c1C	-23%	48%[activator]
Cc1ccc(S(=O)(=O)N2Cc3ccccc3CC2C(=O)NC(C)(C)C)cc1 (stereo unspecified)	-25%	0%
COc1ccc(NC(=O)CCOc2ccccc2)c(OC)c1	?	3%
CC1CCCCC1NC(=O)c1cccc(S(=O)(=O)N2CCN(C)CC2)c1 (stereo unspecified)	23%	-8%
O=c1c2oc3ccccc3c2n(Cc2ccccc2F)c(=O)n1Cc1ccco1	-15%	-6%
CCCOc1ccccc1C(=O)N(Cc1cccs1)C1CCS(=O)(=O)C1 (stereo unspecified)	-18%	-1%
COc1cc(CN2CC(=O)N(c3ccc(C)cc3)C2=S)cc(OC)c1OC	?	-2%
COc1ccc(S(=O)(=O)N2CCN(C)CC2)cc1C	-11%	-3%
CCOC(=O)C(=O)N1CCC(C(=O)OC)CC1	-5%	-11%
Cc1ccccc1CNC(=O)c1ccc2nc(C(C)C)oc2c1	-29%	0%
Cc1ccc(S(=O)(=O)/N=C(/Nc2ccc(F)cc2F)c2ccccc2)cc1	-4%	-6%
COC(=O)C(C)N(C(=O)c1ccc(Cl)cc1)c1c(C)cccc1C (stereo unspecified)	15µM*	-1%
N#CC1=C(N)C(C#N)(C#N)C(c2cccnc2)C2COCC=C12 (stereo unspecified)	1%	-2%
COc1ccc(C2c3ccc(O)cc3Oc3ncn(CCCO)c(=N)c32)cc1OC (stereo unspecified)	0%	-5%

Of the compounds above, 3 contain a thiophene ring, fused or not.
SMILES	DT40 TDP1 CPT	KAT2A inh
CC(=O)N/N=C(\C)c1cccc(NC(=O)c2cccs2)c1	-1%	0%
CC1CCC2(CC1)NC(=O)N(CC(=O)c1ccc(Cl)s1)C2=O (stereo unspecified)	14%	-10%
CCCOc1ccccc1C(=O)N(Cc1cccs1)C1CCS(=O)(=O)C1 (stereo unspecified)	-18%	-1%

The list continues.
SMILES	DT40 TDP1 CPT	KAT2A inh
O=C1CCC(/C=C/c2ccccc2)=NN1Cc1ccccc1Cl	-23%	-7%
COc1ccc(NC(=O)CSCC(=O)Nc2cccc3ncccc23)cc1	-22%	-3%
Cc1cccc(NC(=O)CCN2CC(C)CC(C)C2)c1 (stereo unspecified)	-19%	?
COc1ccc(-c2csc(NC(=O)COc3ccc(N(C)S(=O)(=O)c4ccc(C)cc4)cc3)n2)cc1	5.2µM*	-6%
CCOC(=O)c1cc(-c2csc(COc3ccccc3)n2)on1	-5%	-8%
COc1ccc(-c2nc(-c3ccncc3)no2)cc1	0%	41%
Cc1c(C(=O)Nc2ccccc2)sc2ncn(CC(=O)N3CCCCC3)c(=O)c12	-21%	-3%
CC(NC(=O)c1ccco1)c1cccc2ccccc12 (stereo unspecified)	?	1%
Cc1nnc(SCC(=O)NC2CCS(=O)(=O)C2)n1-c1ccccc1 (stereo unspecified)	-9%	0%
O=C(Nc1ccccc1)Nc1ccc(Cl)c([N+](=O)[O-])c1	-19%	-8%
COc1ccccc1-n1ccnc(SCC(=O)NCc2ccccc2)c1=O	1%	-12%
Cc1ccc(Oc2ccccc2NC(=O)CN2C(=O)NC3(CCCC3)C2=O)cc1	-20%	?
Cc1ccccc1NCc1ccc([N+](=O)[O-])s1	-10%	-4%
CSc1ccccc1NC(=O)Nc1cccc(Cl)c1	16µM*	-2%
CC(=O)Nc1cc(C(=O)NCc2ccccc2Cl)ccc1Sc1ccc(F)cc1	?	-7%
O=C(CSc1nnc(-c2cccs2)o1)OC1CCCCC1	?	-4%
COCC1CCN(Cc2c(C(=O)N3CCc4ccccc4C3)nc3ccc(Cl)cn23)C1 (stereo unspecified)	?	-12%
NC(=O)c1ccc(NC(=O)COc2cccc3ccccc23)cc1	-16%	-1%
CC[C@]12c3[nH]c4ccc(OC)cc4c3CCN1C(=O)C(CC(=O)NCCC1=CCCCC1)C[C@@H]2C(=O)N1CCN(C(=O)C2CC2)CC1 (stereo partly specified)	?	1%
Cn1c(CNC(=O)CCNC(=O)c2cccc(Br)c2)cc(=O)n(C)c1=O	-9%	-7%
Cc1ccc(CC(=O)O/N=C(\N)c2cccc([N+](=O)[O-])c2)cc1	-25%	0%
CN1CCN(C(=O)C2CCN(S(=O)(=O)c3cnc[nH]3)CC2)CC1	3%	1%
C=CCC(COCc1ccccc1)NS(=O)(=O)c1ccccc1Br (stereo unspecified)	?	-9%
Cc1ccccc1NC(=O)c1cccc(S(=O)(=O)Oc2ccc([N+](=O)[O-])cc2)c1	?	-5%
CSc1ccccc1N=CC1=C(O)CC(C)(C)CC1=O	-14%	-8%
Cc1csc(NC(=O)CSc2nnc3c4ccccc4nc(C(C)(C)C)n23)n1	4.6µM*	-12%
CCC(Cc1ccccc1)NS(=O)(=O)c1csc(C(N)=O)c1 (stereo unspecified)	2%	-2%
CCOc1ccc(S(=O)(=O)NCC2CCCO2)cc1 (stereo unspecified)	15%	-4%
Cc1cccc(-c2noc(-c3ccc(NC4CCCC4)c([N+](=O)[O-])c3)n2)c1	-25%	-8%
C/C(=N/N1CCN(c2ccccn2)CC1)c1ccc([N+](=O)[O-])cc1	2%	-4%

Entries shown so far with a tert-butyl group:
SMILES	DT40 TDP1 CPT	KAT2A inh
Cc1ccc(S(=O)(=O)N2Cc3ccccc3CC2C(=O)NC(C)(C)C)cc1 (stereo unspecified)	-25%	0%
Cc1csc(NC(=O)CSc2nnc3c4ccccc4nc(C(C)(C)C)n23)n1	4.6µM*	-12%

Additional entries.
SMILES	DT40 TDP1 CPT	KAT2A inh
O=C(NCc1ccc2c(c1)OCO2)c1cccc(C(=O)NCc2ccc3c(c2)OCO3)c1	-12%	-10%
Cc1noc(C)c1C(=O)OC(C)C(=O)Nc1ccc(C(N)=O)cc1 (stereo unspecified)	2%	2%
O=C(COc1ncnc2ccccc12)NCCc1ccccc1	-4%	-2%
c1ccc(CNc2cncnc2)cc1	-2%	-6%
C/C(=N/NC(=O)CN1CCN(Cc2ccccc2Cl)CC1)c1ccco1	-3%	-5%
CCOC(=O)c1ccc(N(CC(=O)NC2CCCCC2)C(=O)CNC(=O)c2ccco2)cc1	12%	-2%
CCS(=O)(=O)N1CCC(C(=O)Oc2ccc(C)c(C)c2)CC1	-3%	-6%
COC(=O)C1CCCN1C(=O)C1CCCN1C(=O)CNC(=O)OCc1ccccc1 (stereo unspecified)	?	-3%
Cc1ccc(NC(=O)N2CCN(C(=O)C3CCCO3)CC2)cc1 (stereo unspecified)	0%	-13%
Cc1cnn(C(=O)c2oc3ccccc3c2C)c1	-3%	0%

Single records, as listed above. Screens in order: DT40 TDP1 CPT	KAT2A inh
`Cc1noc(C)c1C(=O)OC(C)C(=O)Nc1ccc(C(N)=O)cc1` (stereo unspecified) as listed: 2%	2%
`Cc1cnn(C(=O)c2oc3ccccc3c2C)c1` as listed: -3%	0%
`Cc1ccc(NC(=O)N2CCN(C(=O)C3CCCO3)CC2)cc1` (stereo unspecified) as listed: 0%	-13%
`CCOC(=O)c1ccc(N(CC(=O)NC2CCCCC2)C(=O)CNC(=O)c2ccco2)cc1` as listed: 12%	-2%
`c1ccc(CNc2cncnc2)cc1` as listed: -2%	-6%

More results
SMILES	DT40 TDP1 CPT	KAT2A inh
CN(C)c1ccc(S(=O)(=O)NCC(=O)N2CCN(S(=O)(=O)c3cccc(F)c3)CC2)cc1[N+](=O)[O-]	-7%	.
CC(C)(C)S(=O)(=O)c1cnc(N2CCCC2)nc1N	-2%	1%
O=S1(=O)N=C(N2CCc3ccccc3C2)c2ccccc21	-15%	-5%
CC(OC(=O)Cc1cccc(C(F)(F)F)c1)C(=O)Nc1ccc(Cl)cn1 (stereo unspecified)	7%	-13%
CC(Oc1cccc(Br)c1)C(=O)N1CCCN(C)CC1 (stereo unspecified)	1%	1%
Cc1cc(NC(=O)C(C)SCC(=O)N(C)Cc2ccccc2F)no1 (stereo unspecified)	-5%	-3%
O=C(NCCSc1ccccc1)c1ccccc1	-8%	-1%
COC(=O)c1cc(NC(=O)c2cccnc2)ccc1N1CCOCC1	6%	-5%
COC(=O)Cn1cc(/C=C/c2cc[n+](C)cc2)c2ccccc21	?	?
CC(C)N(C(=O)[C@H]1C[C@H](CC(=O)NCCCn2ccnc2)C(=O)N2CCc3c([nH]c4ccc(Cl)cc34)[C@]12C)C(C)C	?	-2%
Cc1ccc(Nc2nc(NCC3CCCO3)nc(N)c2[N+](=O)[O-])cc1C (stereo unspecified)	-5%	-20%
CCOC(=O)c1c(NC(=O)CN2C(=O)NC3(CCCCC3)C2=O)sc(C)c1-c1ccc(C)cc1	18µM*	-2%
CCOC(=O)c1c(-c2ccccc2)oc2ccc(OCC(=O)NNC(=O)CCCC(=O)O)cc12	2%	-16%
O=C(NNC(=O)C1CCCO1)c1ccc(Br)cc1 (stereo unspecified)	-3%	1%
CCCCN(C(=O)c1cc2c(s1)CCCCC2)c1c(N)n(CC(C)C)c(=O)[nH]c1=O	-2%	-1%
COC(=O)C1=C(C)Nc2ncnn2C1c1ccc(C)o1 (stereo unspecified)	-7%	1%
CC1CS(=O)(=O)CCN1N=Cc1ccc([N+](=O)[O-])o1 (stereo unspecified)	?	-3%
COc1ccc(S(=O)(=O)Nc2ccc3c(c2)OCO3)cc1Cl	-22%	?
COc1ccc(CNC(=O)CCc2c(C)nn(-c3ccc(N4CCOCC4)nn3)c2C)c(OC)c1	-3%	-2%
O=C1CC2(CCN(C(=O)c3ccccc3Cl)CC2)Oc2ccccc21	?	1%
CN(CCOc1ccccc1)C(=O)c1ccc(F)c(S(=O)(=O)N2CCOCC2)c1	-1%	-4%
C=CCOC(=O)C1=C(C)Nc2[nH]c(=O)[nH]c(=O)c2C1c1ccccc1 (stereo unspecified)	11%	-2%
O=C(CN1C(=O)C2CCCCC2C1=O)Nc1ccc(S(=O)(=O)Nc2ncccn2)cc1 (stereo unspecified)	13%	4%
O=C1c2ccccc2C(=O)N1C(CO)C(O)c1ccc([N+](=O)[O-])cc1 (stereo unspecified)	9%	0%
CC(=O)O[C@H]1CC[C@@]2(C)C(CCC3C2CC[C@]2(C)OC(=O)CCC32)C1 (stereo partly specified)	1%	2%
O=C(CCN1C(=O)c2cccc3cccc(c23)C1=O)NCC1CCCO1 (stereo unspecified)	1%	-15%
NNC(=O)CNC(c1ccccc1)c1cc(Cl)ccc1NC(=O)c1ccccc1 (stereo unspecified)	?	-7%
COc1ccc(-c2cc(C(C)=O)c(C)n2CCC(=O)Nc2ccc(C(F)(F)F)cc2)cc1	12µM*	-4%
O=C(Cc1n[nH]c(=O)c2ccccc12)OCC(=O)c1ccc(F)cc1	-1%	1%
COc1ccc(NC(=O)CC2C(=O)N(c3cccc(OC)c3)C(=O)N2Cc2ccco2)cc1 (stereo unspecified)	-8%	-5%
O=C(Nc1ccccc1)C1=C[C@H](c2ccc(C(F)(F)F)cc2)C[C@H](OCc2ccc(CO)cc2)O1	?	-15%
Cc1cccc(N2CCN(C(=O)c3ccc4c(c3)CCN4S(C)(=O)=O)CC2)c1C	13µM*	-2%
CC(NC(=O)OC(C)(C)C)C(=O)NC(CCC(=O)OCc1ccccc1)C(N)=O (stereo unspecified)	-28%	1%
CN(C)c1ccc(C(=S)N2CCN(S(=O)(=O)c3ccccc3)CC2)cc1	-21%	-12%
COc1ccc(CCNC(=O)c2c(C)oc3ncnc(N4CCOCC4)c23)c(OC)c1	3%	0%
